Screens: PubChem, National Center for Advancing Translational Sciences (NCATS)
StopGo reporter: High Throughput Screening for Foot and Mouth Disease Virus Antivirals; human cells with a luciferase reporter of 2A StopGo recoding; control for the full effect not named in the record; Potency, µM (highest dose often 57.9 µM), without a hit: at the top dose signal change, negative = less light; hit rate 1.2% among 410,000; AID 1159524, 2015; active = well fitted falling curve with a large enough effect; inconclusive = small, poorly fitted or top-dose-only effect; inactive = no such curve, though single readings can be large or run the other way; tested in HEK293T cells; further: on the % scale 0 is the no-effect control and ±100 the full control effect; nearly all actives have a fitted effect of over 45% in size; luciferase light after 4 h
RE007 growth inh: qHTS Assay for Inhibitors of the HIV-1 protein Vpr; S. pombe RE007 Vpr strain, BacTiter-Glo ATP luminescence, 24 h; control for the full effect not named in the record; Potency, µM (top dose mostly 92.2 µM), for inactives: at the highest dose activity change, negative = less growth; hit rate 0.21% among 360,000; AID 651644, 2012; active = well fitted falling curve with a large enough effect; inconclusive = small, poorly fitted or top-dose-only effect; inactive = no such curve, though single readings can be large or run the other way;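 further: on the % scale 0 is the no-effect control and ±100 the full control effect; nearly all actives have a fitted effect of over 50% in size; the assay follows cell death caused by Vpr and the record does not say whether a fall means rescue or toxicity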
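Fission yeast RE007 carrying one integrated HIV-1 vpr copy, seeded at OD 0.01 in PMG+AL medium with 23 nL pinned compound. Grown 24 h at 30 degrees; viability read by BacTiter-Glo luminescence after 5 min.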
SARS PLpro yeast: qHTS of Yeast-based Assay for SARS-CoV PLP; S. cerevisiae expressing SARS-CoV PLpro, growth rescue; control for the full effect not named in the record; Potency, µM (doses to about 32.9 µM), for the others: at the top dose activity, positive = growth rescue; hit rate 0.19% among 330,000; AID 485353, 2010; active means well fitted rising curve with a large enough effect; inconclusive means small, poorly fitted or top-dose-only effect; inactive means no such curve, though single readings can be large or run the other way; further: 0% is about no effect; nearly all actives have a fitted effect of over 55% in size; growth read by luminescence after 48 h
Marburg entry inh: qHTS for inhibitors of binding or entry into cells for Marburg Virus; Marburg virus pseudotyped entry inhibition, cell reporter; control for the full effect not named in the record; about a third of the inactives were read at about 46 µM; Potency, µM (titrated, usually from 37.8 µM), for inactives: at the highest dose activity change, negative = inhibition, actives largely listed as inhibitors; hit rate 1.8% among 300,000; AID 540276, 2011; active = well fitted inhibition curve with a large enough effect; inconclusive = small, poorly fitted or top-dose-only effect, or effect the other way; inactive = flat fitted curve, though single readings scatter; tested in HEK293 cells; about a fifth of its hits are not listed in these tables; further: on the % scale 0 is the no-effect control and ±100 the full control effect; luciferase read-out
Lassa entry inh: qHTS for Inhibitors of binding or entry into cells for Lassa Virus | Lassa virus pseudotype entry inhibition, cell reporter; control for the full effect not named in the record | hit rate 1.2% among 300,000 | Potency, µM (highest dose often 37.9 µM), for the others: top-dose activity change, negative = inhibition, actives largely listed as inhibitors; active means well fitted inhibition curve with a large enough effect; inconclusive means small, poorly fitted or top-dose-only effect, or effect the other way; inactive means flat fitted curve, though single readings scatter; tested in HEK293 cells; further: on the % scale 0 is the no-effect control and ±100 the full control effect; nearly all actives have a fitted effect of over 50% in size; luciferase read-out
NS1 inh: qHTS Assay for Inhibitors of Influenza NS1 Protein Function | AID 2326, 2010 | S. cerevisiae slowed by influenza A NS1, growth recovery by OD600 | hit rate 0.4% among 270,000 | Potency, µM (highest dose often 46.1 µM), inactives show at the top dose activity, positive = more growth; active means well fitted rising curve with a large enough effect; inconclusive means small, poorly fitted or top-dose-only effect; inactive means no such curve, though single readings can be large or run the other way; further: nearly all actives have a fitted effect of over 50% in size
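A cell-based growth assay was used: compounds that relieve NS1-induced slow growth of budding yeast raise OD600. Assay medium was yeast nitrogen base with ammonium sulphate and -URA supplement, pH 6.0, with 2% galactose.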
Cruzain noTriton: qHTS Assay for Promiscuous and Specific Inhibitors of Cruzain (without detergent). Potency, µM, for inactives: max response, negative = inhibition, hits mostly inhibitors. Cruzipain (Trypanosoma cruzi), P25779. hit rate 2.3% among 200,000. purified cruzain, Z-FR-AMC fluorescence, no detergent;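 further: plate controls were enzyme without inhibitor for no effect and buffer without enzyme for full effect; nearly all actives have a fitted effect of over 40% in size; top concentration of the series not given in the record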
Target sequence (P25779 123-467 limits assumed): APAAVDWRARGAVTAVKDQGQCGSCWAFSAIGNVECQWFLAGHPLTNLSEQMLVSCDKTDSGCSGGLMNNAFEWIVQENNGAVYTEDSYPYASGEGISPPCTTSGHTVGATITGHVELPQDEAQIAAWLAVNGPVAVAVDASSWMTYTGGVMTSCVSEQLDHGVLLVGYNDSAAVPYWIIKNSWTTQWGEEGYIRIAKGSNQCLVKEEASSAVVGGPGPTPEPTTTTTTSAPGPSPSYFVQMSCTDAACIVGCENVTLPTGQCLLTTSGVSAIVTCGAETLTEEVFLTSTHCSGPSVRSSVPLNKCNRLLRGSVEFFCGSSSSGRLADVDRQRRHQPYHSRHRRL
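Detergent-free condition (0.00005% Triton X-100) in acetate buffer pH 5.5 with DTT. 1.5 nM enzyme and compound were pre-mixed 15 min, then 2 uM Z-FR-AMC substrate added; reaction progress from fluorescence change between first and third reads (60 s).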
Cruzain inh Det: qHTS Assay for Promiscuous and Specific Inhibitors of Cruzain (with detergent); purified cruzain, Z-FR-AMC fluorescence, 0.01% Triton; Potency, µM, without a hit: max response, negative = inhibition, usual class: inhibitors; Cruzipain (Trypanosoma cruzi), P25779; hit rate 0.43% among 200,000;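 further: plate controls were neutral wells for no effect and buffer without enzyme for full effect; nearly all actives have a fitted effect of over 40% in size; top concentration of the series not given in the record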
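Z-FR-AMC hydrolysis (2 uM substrate) by cruzain (1.5 nM) monitored kinetically at ex 360/em 450 nm after 15 min room-temperature compound exposure; 0.01% Triton X-100, pH 5.5, 5 mM DTT.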
* marks the source's active call; other numbers are inactive results; ? = inconclusive; . = no result given; & = joins results of further samples; [ ] = remark or other dose. Unless noted, the call rests on the fitted dose curve; in most records, active means well fitted curve in the direction sought with a large enough effect; inconclusive means small, poorly fitted or top-dose-only effect, or another doubt; inactive means no such curve, though single readings can be large; an effect the other way counts as inactive or inconclusive. Potency means the concentration at half of the fitted maximal effect.

SMILES	StopGo reporter	RE007 growth inh	SARS PLpro yeast	Marburg entry inh	Lassa entry inh	NS1 inh	Cruzain noTriton	Cruzain inh Det
COc1ccc(CCNC2=NCCS2)cc1	2%	-11%	0%	2%	?	-6%	-12%	2.8%
CC(C)(C)NC(=O)CSc1nc2ccccc2c(=O)[nH]1	41%[activator]	3%	1%	?	11%	1%	.	.
Cc1cccc(NC(=O)Cn2nnc(C(=O)Nc3ccccc3Br)c2N)c1C	5%	.	.	.	1%[46.1 µM]	.	2%	2.8%
O=C(CSc1nncc2ccccc12)Nc1ccc(F)cc1	-25%	8%	0%	23%[46.1 µM]	-1%[46.1 µM]	-26%	.	.
CCOC(=O)c1oc2ccccc2c1NC(=O)CN1CCOCC1	-9%	-9%	-2%	4%[46.1 µM]	1%	-32%	.	.
COC(=O)CCC(=O)OC1(C)C(=O)C=C2C=C(C3CC3)N(C(CO)CO)C=C2C1=O (stereo not given)	-3%	-8%	2%	.	.	2%	.	.
CC(C)c1ccc(S(=O)(=O)N2CCN(C(=O)c3ccco3)CC2)cc1	-25%	-7%	2%	4%	?	.	.	.
CCOC(=O)c1sc2ncc([N+](=O)[O-])cc2c1N	41%[activator]	?	0%	-7%	.	-1%	.	.
CCOCCCNC(=O)CN1C(=O)c2ccccc2Sc2ncccc21	-15%	5%	1%	.	.	0%	.	.
CCc1c(C)nc(N)nc1N1N=C1SCC(N)=O	0%	-8%	3%	4%	0%	5%	-7%	1.6%
CC(OC(=O)c1cc2sccc2n1C)C(=O)NCCc1ccccc1 (stereo not given)	.	-3%	3%	?	-28%	-16%	-1%	-0.7%
Fc1cc(F)cc(NC(=S)Nc2ccccc2N2CCOCC2)c1	-26%	-13%	-2%	?	-9%[46.1 µM]	-11%	.	.
CC1(C)[C@H]2CC=C(CN3CCC(N4CCC(C(=O)N5CCCC5)CC4)CC3)[C@@H]1C2	-16%	-12%	-1%	-30%[46.1 µM]	-1%	-2%	.	.
CC(=O)N1CCCc2cc(S(=O)(=O)N3CCC(C(=O)NCc4ccccc4Cl)CC3)ccc21	-9%	.	.	.	-18%[46.1 µM]	.	3%	-6.0%
COc1ccccc1N1CCN(C(=O)c2ccc3c(=O)n(Cc4ccc5c(c4)OCO5)c(=O)[nH]c3c2)CC1	?	3%	11%	.	.	14%	.	.
CCN(CC)S(=O)(=O)c1ccc(NC(=O)c2c(C)oc3ncnc(N4CCOCC4)c23)cc1	-2%	.	.	.	14%[46.1 µM]	.	-9%	-1.6%
Cc1ccc(C)c(NC(=O)c2cc([N+](=O)[O-])cc([N+](=O)[O-])c2)c1	-4%	6%	0%	-5%[46.1 µM]	0%[46.1 µM]	3%	.	.
CN(C)CCCN(C(=O)c1ccc(S(=O)(=O)N2CCOCC2)cc1)c1nc2cc3c(cc2s1)OCO3	15%	-11%	-4%	.	.	-9%	.	.
O=C(O)c1ccc(S(=O)(=O)Nc2ccc(F)c(Cl)c2)cc1	40%[activator]	2%	14%	?	1%	-129%	-7%	0.9%
C/C=C\C(=O)Nc1cccc(C2=NOC3(C2)C[C@@H](C(N)=O)N(C(=O)COc2ccc(Cl)cc2)C3)c1 (stereo not given in full)	-15%	-23%	-1%	.	.	-12%	.	.
O=C(c1cc2ccccc2oc1=O)N1CCCC1	-2%	5%	-1%	?	0%	4%	-7%	-1.8%
CC(=O)Oc1ccc(OC(C)=O)c2c1CC(C)=C(C)C2	-20%	3%	-3%	.	.	-40%	.	.
CCCCCOC(=O)CCN1C(=O)/C(=C2\SC(=S)N(CCC(=O)OCCCCC)C2=O)SC1=S	-10%	0%	1%	-1%	?	-1%	.	.
COc1cccc2c1OCC(C(=O)Nc1nccs1)=C2	41%[activator]	7%	-1%	.	.	-39%	.	.
CSc1ccc(CN2CCN(C(=O)CC(C)C)CC2)cc1	-19%	12%	-8%	?	0%[46.1 µM]	-9%	.	.
COc1ccc(-c2nc(NCCCN(C)C)c3ccccc3n2)cc1	0%	6%	-5%	.	.	-10%	.	.
CCCCn1c(=O)c2oc3ccccc3c2n(CC(=O)Nc2ccc(CC)cc2)c1=O	-14%	.	.	.	11%[46.1 µM]	.	-2%	-0.6%
CN(CC(=O)Nc1ccc(N2CCOCC2)cc1)CC(=O)Nc1ccccc1C#N	-3%	3%	20%	15%	21%	-1%	-4%	-1.9%
Cc1ccc(NC(=O)CC2C(=O)NCCN2C(=S)Nc2ccccc2)c(C)c1 (stereo not given)	-1%	.	15%	-3%	29%	-3%	-12%	-0.8%
CCOC(=O)c1sc(NC(=O)c2ccoc2C)c(C(N)=O)c1C	-27%	1%	?	4%	-18%	15%	.	.
COc1cc(/C(C)=N/N2CCN(c3ccccc3OC)CC2)ccc1O	17%	-13%	-14%	.	.	17%	.	.
O=C(c1ccccc1)c1ccc(COC(=O)c2cnccn2)cc1	1%	7%	-2%	?	14%	-10%	.	.
Cc1ccc(NC(=O)c2cc(N3C(=O)C4CC=CCC4C3=O)ccc2N2CCOCC2)cc1Cl (stereo not given)	-19%	12%	2%	-3%	-34%	3%	-10%	-8.9%
COc1ccc2c(c1)[nH]c1c(=O)n(CCCN3CCOCC3)cnc12	1%	0%	5%	-7%	3%	0%	-6%	-3.3%
Cc1ccc(C(=O)NNC(=O)c2ccccc2-n2cccc2)cc1	9%	-15%	4%	-24%[46.1 µM]	1%[46.1 µM]	.	.	.
CSc1ccc2c(c1)[C@H](N1CCN(C)CC1)Cc1ccccc1S2	?	.	.	?	.	.	-2%&-5%	-6.8%&-5.9%
COc1cccc(CNC(=O)C(C)n2c(=O)cc(-c3ccccc3)c3c(C)nn(C)c32)c1 (stereo not given)	-10%	.	.	.	-9%[46.1 µM]	.	?	-6.9%
O=C(N[C@@H](Cc1c[nH]c2ccccc12)C(=O)O)c1ccc(Cl)cc1	-13%	-11%	1%	14%[46.1 µM]	16%[46.1 µM]	.	.	.
O=C(CSc1nnc2ccc(-c3ccc(F)cc3)nn12)N1CCOCC1	2%	10%	-2%	-9%	23%	.	.	.
O=C(NCCCNC(=O)c1ccccc1)c1ccccc1	12%	1%	.	-14%[46.1 µM]	3%	.	.	.
Cc1ccccc1S(=O)(=O)Cc1ccc(C(=O)N2CCN(c3cccc(C)c3C)CC2)o1	25µM*	-24%	-13%	?	3.5µM*	-36%	11%	-1.7%
CCOC(=O)c1c(-c2ccccc2)nnn1-c1nc(OCC)nc(N2CCCCC2)n1	?	8%	1%	?	?	-34%	?	-3.3%
CCOc1ccc(OCC)c(NC(=O)c2cc(-c3cccs3)nc3ccccc23)c1	-4%	.	.	16%[46.1 µM]	3%[46.1 µM]	.	-1%	2.9%
COc1ccc(C)cc1NC(=O)CN1C(=O)CSc2ccc(S(=O)(=O)N3CCCC3)cc21	0%&8%	-11%	21%	14%[46.1 µM]	-3%&11%[46.1 µM]	17%	18%	-1.0%
CCOC(=O)C(=O)Nc1ccc(F)cc1	11%	1%	5%	5%	6%	?	0%	4.9%
O=C(COc1ccc(F)cc1)NCC1CCCO1 (stereo not given)	16%	-3%	-2%	1%	14%	2%	9%	1.2%
CCCNC(=O)CCn1nc(-c2ccc(C)cc2)c2ccccc2c1=O	8%&3%	-1%	0%	.	-21%[46.1 µM]	-5%	-1%	-0.2%
COc1cccc(C(=O)NC2CCCN(C3Cc4ccccc4C3)C2)c1OC (stereo not given)	-3%	7%	6%	.	.	9%	.	.
CCc1cccc(CC)c1NC(=S)Nc1ccccc1	-18%	-19%	0%	-26%[46.1 µM]	4%[46.1 µM]	3%	.	.
COc1ccc(NC(=O)CN(c2ccc(C)cc2)S(=O)(=O)c2cccs2)cc1OC	-7%	.	.	7%[46.1 µM]	-12%[46.1 µM]	.	-3%	-2.8%
Next part
SMILES	StopGo reporter	RE007 growth inh	SARS PLpro yeast	Marburg entry inh	Lassa entry inh	NS1 inh	Cruzain noTriton	Cruzain inh Det
CCCCCC(/C=N/Nc1ccc(S(=O)(=O)N2CCOCC2)cc1[N+](=O)[O-])=C\c1ccccc1	-17%	6%	-8%	?	-12%	4%	?	4.7%
O=C(C1CCN(S(=O)(=O)N2CCC3(CC2)OCCO3)CC1)N1CCc2ccccc2C1	?	12%	3%	?	1%	-9%	4%	0.2%
COc1ccc([N+](=O)[O-])cc1N(CC(=O)Nc1ccccc1C(=O)N1CCCC1)S(C)(=O)=O	4%	6%	-1%	-6%[14.2 µM]	3%	6%	.	.
Cc1cc(C)n(Cc2n[nH]c(=S)n2Cc2ccccc2)n1	-12%	2%	0%	17%	0%	-7%	-2%	4.9%
Cc1ccc(S(=O)(=O)N2CCN(C(=O)CCC(=O)NCc3ccc(F)cc3)CC2)cc1	-9%	?	5%	?	10%	0%	15%	1.0%
CCCS(=O)(=O)Nc1cccc(-c2cn3c(n2)SCC3)c1	0%	1%	6%	.	.	6%	.	.
CCOc1ccc(NC(=O)CN2C(=O)C(c3ccc(Cl)cc3)=NC2(C)C)cc1	-28%	.	.	4%[46.1 µM]	1%[46.1 µM]	.	-7%	-3.1%
O=C(Nc1ccc2c(c1)OCCO2)c1cncc(Br)c1	-15%	10%	-1%	?	?	-12%	-10%	2.4%
Cc1nn(C)c(C)c1NC(=O)c1ccc(Br)o1	-15%	9%	1%	-6%[46.1 µM]	20%	.	.	.
CCN(CC)S(=O)(=O)c1ccc(C)c(C)c1	9%	7%	0%	-4%&-4%	-3%	-6%	-2%	4.5%
Cc1cc2ncn(-c3ncccc3[N+](=O)[O-])c2cc1C	-4%	-10%	-27%	-1%[46.1 µM]	1%	?	.	.
COc1ccc(C(C(=O)NCc2ccccc2)N(C(=O)Cn2nnc3ccccc32)c2ccc(OC)cc2)cc1 (stereo not given)	5%	.	.	12%[46.1 µM]	6%[46.1 µM]	.	-3%	-3.0%
COc1cccc(C2=NOC(C(=O)NCc3ccco3)C2)c1 (stereo not given)	39%[activator]	-18%	3%	-26%	?	-10%	-7%	1.6%
COc1ccccc1Nc1nc(NCC(C)C)nc(N)c1[N+](=O)[O-]	?	18%	-1%	3%[46.1 µM]	-6%	4%	.	.
